# Bioassay records as filed in PubChem BioAssay.
# MITF inh – inhibitors of MITF | inhibition, % (test concentration not listed) | AID 2240 | TRPM1 promoter luciferase, luminescence, 24 h | 0.28% of 37,000 active;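 active = most replicates at 85% or more, or half of them and the mean; inconclusive = half reach 85% but not the mean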;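 also: human melanocyte line stably carrying TRPM1 promoter luciferase reporter; 0% = vehicle wells and 100% = a positive control; the first replicate is given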
# Hedgehog inh – Sonic Hedgehog pathway inhibition; Shh-LIGHT2 Gli-luciferase reporter, 30 h; inhibition, % (no concentration beside the values); 2.1% of 22,000 active;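 active = replicate mean of 65% or more; inconclusive = mean lower but half the replicates past it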;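 also: pathway switched on by Shh-conditioned medium diluted 1 in 25 in low serum; 100 nL library stock added to about 40 µL; 0% = median of neutral wells and 100% = positive control level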
# PD-1 reversal – activators reversing PD-1 mediated T-cell inhibition | activation, % (test concentration not listed) | 29,000 tested, under 10 active | primary human CD4 T cells, PD-L1 beads, CellTiter-Glo 96 h;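 active = replicate mean of 50% or more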;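 also: 0% = median vehicle wells and 100% = positive control; 100 nL library stock added to about 50 µL; numbers are from one replicate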
# YB-1 expr inh – YB-1 expression inhibition | delta delta Cp (YB-1 minus CDIP) (concentration not given with the values) | U2OS, qRT-PCR YB-1 vs CDIP delta delta Cp, 16 h; hits give high values; zero = DMSO, each unit about twofold | AID 434959 | 0.37% of 30,000 active;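 active = delta delta Cp rounded down to an integer at or above 3, about 3 SD of DMSO wells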;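 also: higher means less YB-1 transcript or more CDIP transcript relative to DMSO; stock transfer was 100 nL into about 100 µL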
# * marks the source's active call; other numbers are inactive results; ? = inconclusive; / = no result given. Only part of the results is shown, so the mix of outcomes need not match the whole.
SMILES,MITF inh,Hedgehog inh,PD-1 reversal,YB-1 expr inh
Cc1ccc(S(=O)(=O)N(C)C[C@H]2Oc3ccc(N(C)C)cc3CC(=O)N([C@H](C)CO)C[C@H]2C)cc1,2,-15,-0.3,-0.34
C[C@@H]1CN([C@H](C)CO)C(=O)c2cc(NS(=O)(=O)c3ccc(F)cc3)ccc2O[C@H]1CN(C)S(C)(=O)=O,-8,/,0.8,-0.39
COCC(=O)Nc1sc2c(c1C(=O)OC)C(C(=O)OC)CC2 (centres undefined),-8,/,-1.1,/
COc1ccc(S(=O)(=O)Nc2ccc3c(c2)C(=O)N([C@@H](C)CO)C[C@@H](C)[C@@H](CN(C)Cc2ccc(C(=O)O)cc2)O3)cc1,2,-36,1.7,-0.3
CC(C)C(NS(=O)(=O)c1ccc(F)c(Cl)c1)C(=O)O (centres undefined),-8,/,1.7,/
Cc1ccc(C(=O)CC(C(=O)O)N2CCN(C)CC2)cc1 (centres undefined),-1,?,-6.3,0.42
C[C@H]1CN([C@@H](C)CO)C(=O)Cc2cc(NC(=O)CCC(F)(F)F)ccc2O[C@H]1CN(C)C,1,4,0.0,-0.44
COc1ccc(CN(C)C[C@@H]2OCCCC[C@@H](C)Oc3ccc(NS(C)(=O)=O)cc3C(=O)N([C@H](C)CO)C[C@@H]2C)cc1,7,/,0.2,-0.16
C[C@@H]1CCCCO[C@H](CN(C)C)[C@@H](C)CN([C@H](C)CO)C(=O)c2cc(NC(=O)CCC(F)(F)F)ccc2O1,-9,-49,/,0.047
Cc1ccc(SCCC(=O)Nc2cccnc2)cc1,14,/,0.1,/
CC(=O)c1cccc(NC(=O)CN(C)S(=O)(=O)c2ccc3ccccc3c2)c1,24,/,0.8,/
N#CCc1ccc(NC(=O)Cc2ccccc2[N+](=O)[O-])cc1,-27,/,-0.6,/
CC(C)NC(=O)Nc1ccc2c(c1)C(=O)N([C@@H](C)CO)C[C@@H](C)[C@H](CN(C)Cc1ccc(C(=O)Nc3ccccc3N)cc1)O2,-10,/,-0.3,-0.27
Cc1ccc(S(=O)(=O)N(C)C[C@H]2Oc3ccc(NS(=O)(=O)c4ccc(F)cc4)cc3C(=O)N([C@H](C)CO)C[C@@H]2C)cc1,-15,/,1.6,-0.024
COc1ccc([N+](=O)[O-])cc1NC(=O)C(C)N(c1ccc(Cl)cc1)S(C)(=O)=O (centres undefined),6,/,1.1,/
C[C@H]1CN([C@@H](C)CO)C(=O)Cc2cc(NS(=O)(=O)c3ccc(F)cc3)ccc2O[C@@H]1CN(C)S(=O)(=O)c1ccccc1,-13,-15,/,-0.0039
Cc1ccc(-n2c(C)nnc2SCC(=O)Nc2ccc(C)cc2Br)cc1,19,/,-0.8,/
COc1ccc(CN(C)C[C@H]2OCCCC[C@@H](C)Oc3ccc(NC(=O)NC4CCCCC4)cc3C(=O)N([C@H](C)CO)C[C@@H]2C)cc1,4,20,-2.2,0.056
C[C@H]1CN([C@@H](C)CO)C(=O)c2cc(NC(=O)Cc3cn(C)c4ccccc34)ccc2O[C@@H]1CN(C)Cc1ccc2c(c1)OCO2,11,/,/,0.18
O=C(CC(=O)c1ccccc1)c1ccccc1,-65,-63,/,-0.32
COc1ccccc1-c1nnc(SCC(=O)Nc2ccccc2-c2ccccc2)n1C,19,/,-1.3,/
Cc1noc(C)c1NC(=O)Nc1ccc2c(c1)C(=O)N([C@H](C)CO)C[C@H](C)[C@@H](CN(C)C(=O)NC1CCCCC1)O2,-5,7,0.9,-0.35
Cc1noc(C)c1NC(=O)N(C)C[C@@H]1Oc2ccc(NC(=O)Cn3cnnn3)cc2C(=O)N([C@H](C)CO)C[C@H]1C,-11,/,1.5,-0.4
O=C(Cn1cnc2ccccc2c1=O)Nc1ccccc1[N+](=O)[O-],-8,/,3.0,/
CC(CCO)Nc1nc2c([nH]1)c(=O)n(C)c(=O)n2C (centres undefined),-20,/,0.0,/

# Among those listed so far, three have a COOH group:
SMILES,MITF inh,Hedgehog inh,PD-1 reversal,YB-1 expr inh
COc1ccc(S(=O)(=O)Nc2ccc3c(c2)C(=O)N([C@@H](C)CO)C[C@@H](C)[C@@H](CN(C)Cc2ccc(C(=O)O)cc2)O3)cc1,2,-36,1.7,-0.3
CC(C)C(NS(=O)(=O)c1ccc(F)c(Cl)c1)C(=O)O (centres undefined),-8,/,1.7,/
Cc1ccc(C(=O)CC(C(=O)O)N2CCN(C)CC2)cc1 (centres undefined),-1,?,-6.3,0.42

# The listing continues.
SMILES,MITF inh,Hedgehog inh,PD-1 reversal,YB-1 expr inh
C[C@H]1CN([C@@H](C)CO)C(=O)Cc2cc(NC(=O)c3ccncc3)ccc2O[C@H]1CN(C)C,-11,?,2.5,-0.11
CC(C)NC(=O)Nc1ccc2c(c1)C(=O)N([C@H](C)CO)C[C@H](C)[C@H](CN(C)Cc1ccc(Cl)c(Cl)c1)O2,18,/,/,0.34
COC(=O)C1=C(NC(=O)c2ccc(S(=O)(=O)N3CCOCC3)cc2)CCS1,13,19,2.7,-2.1
C[C@H]1CN([C@@H](C)CO)C(=O)c2cccc(NS(=O)(=O)c3ccc(F)cc3)c2O[C@@H]1CN(C)Cc1ccc(Cl)c(Cl)c1,-21,-19,/,-0.68
Cc1onc(-c2c(Cl)cccc2Cl)c1C(=O)N=S(C)(C)=O,1,-19,-0.3,-0.45
Cn1nnnc1SCC(=O)Nc1ccc(Br)cc1Cl,-9,/,0.0,/
COc1ccc(NC(=O)CSc2cc(C)c3cccc(C)c3n2)cc1,36,/,-6.1,/
C[C@@H]1CN([C@H](C)CO)C(=O)c2cccc(NS(=O)(=O)c3cn(C)cn3)c2O[C@@H]1CN(C)C,2,6,-0.4,0.052
C[C@H]1CN([C@@H](C)CO)C(=O)c2cc(NC(=O)Nc3ccc(F)cc3)ccc2O[C@@H]1CN(C)S(=O)(=O)c1ccccc1,-23,19,0.4,-0.094
C[C@@H]1CN([C@@H](C)CO)C(=O)c2cccc(NC(=O)Nc3ccc(F)cc3)c2O[C@@H]1CN(C)Cc1ccncc1,-8,-7,0.4,-0.21
Cc1cc(C)c2c(N)c(-c3nnc(SCc4ccc(Cl)cc4)n3C)sc2n1,-15,24,0.8,0.19
COc1ccc(NC(=O)N(C)C[C@H]2Oc3ccc(NS(=O)(=O)c4cn(C)cn4)cc3CC(=O)N([C@@H](C)CO)C[C@@H]2C)cc1,-14,4,0.9,0.13
CCn1c(SCc2nc3ccccc3c(=O)[nH]2)nnc1-c1ccccc1F,-28,/,0.2,/
Cc1noc(C)c1NC(=O)Nc1ccc2c(c1)C(=O)N([C@H](C)CO)C[C@@H](C)[C@@H](CN(C)S(=O)(=O)c1cccs1)O2,2,/,6.1,-0.45
C[C@H]1CN([C@@H](C)CO)C(=O)c2cc(NS(=O)(=O)c3cccs3)ccc2O[C@H]1CN(C)Cc1ccc(C(=O)O)cc1,-3,-30,0.3,0.17
CCOC(=O)n1ccn(C)c1=S,?,-7,/,-0.25
C[C@@H]1CN([C@H](C)CO)C(=O)c2cccc(NC(=O)Nc3ccc(F)cc3)c2O[C@@H]1CN(C)CC1CC1,-33,-50,/,0.052
CC(C)NC(=O)N(C)C[C@@H]1Oc2ccc(NC(=O)Cc3ccccc3)cc2CC(=O)N([C@@H](C)CO)C[C@@H]1C,-6,?,-0.5,0.23
C[C@H](CO)N1C[C@H](C)[C@H](CN(C)CC2CC2)Oc2ccc(NC(=O)CCC(F)(F)F)cc2CC1=O,4,/,0.0,-0.36
Cc1cccc(C)c1OCC(C)N (centres undefined),7,-22,/,-0.33
Cc1ccc(S(=O)(=O)N(C)C[C@H]2Oc3ccc(NC(=O)Nc4ccc5c(c4)OCO5)cc3C(=O)N([C@@H](C)CO)C[C@@H]2C)cc1,1,-34,1.3,-0.25
Clc1ccc2nc(SCc3csc(Nc4ccccc4)n3)oc2c1,2,/,2.3,/
COC(=O)c1cc(N2C(=O)C3C4C=CC(C)(O4)C3C2=O)ccc1Cl (centres undefined),-2,23,-47,0.37
C[C@@H]1CN([C@@H](C)CO)C(=O)c2cccc(N(C)C)c2O[C@@H]1CN(C)C(=O)Nc1cccc2ccccc12,4,-7,2.8,-0.18
COc1ccc(S(=O)(=O)Nc2ccc3c(c2)C(=O)N([C@@H](C)CO)C[C@@H](C)[C@@H](CN(C)S(=O)(=O)c2cccs2)O3)cc1,6,-1,-1.1,0.18

# Complete entries, looked up by structure.
# CCOC(=O)n1ccn(C)c1=S is listed as MITF inh = ?; Hedgehog inh = -7; PD-1 reversal = /; YB-1 expr inh = -0.25
# CC(C)NC(=O)N(C)C[C@@H]1Oc2ccc(NC(=O)Cc3ccccc3)cc2CC(=O)N([C@@H](C)CO)C[C@@H]1C is listed as MITF inh = -6; Hedgehog inh = ?; PD-1 reversal = -0.5; YB-1 expr inh = 0.23

# Following part.
SMILES,MITF inh,Hedgehog inh,PD-1 reversal,YB-1 expr inh
COc1ccc(NC(=O)N(C)C[C@H]2Oc3ccc(NC(=O)c4ccncc4)cc3C(=O)N([C@H](C)CO)C[C@@H]2C)cc1,4,-5,0.0,0.044
C[C@H]1CN([C@@H](C)CO)C(=O)c2cccc(NC(=O)Nc3cccc4ccccc34)c2O[C@H]1CN(C)C(=O)Nc1ccc(F)cc1,16,14,-4.9,1.1
COc1ccccc1C(=O)Nc1sc2c(c1C(=O)NCc1ccco1)CCCC2,-6,/,2.0,/
C[C@H](CO)N1C[C@H](C)[C@H](CN(C)Cc2ccc(C(F)(F)F)cc2)Oc2ccc(NC(=O)Nc3ccccc3)cc2CC1=O,3,/,/,-0.1
C[C@@H]1CN([C@H](C)CO)C(=O)Cc2cc(NC(=O)c3ccncc3)ccc2O[C@H]1CN(C)Cc1ccc(C(F)(F)F)cc1,-4,13,-0.2,0.12
COc1ccc2cc3[n+](cc2c1OC)CCc1cc2c(cc1-3)OCO2,51,17,0.2,0.17
CCc1nc(SCC(=O)N(c2ccccc2)c2ccccc2)n[nH]1,6,/,0.1,/
C[C@@H]1CN([C@H](C)CO)C(=O)c2cc(NC(=O)Cc3ccccc3)ccc2O[C@@H]1CN(C)C(=O)Nc1ccc2c(c1)OCO2,-4,/,0.5,0.16
CC1=CC(/C=C(\C)CCC(O)C(O)/C=C/C(=O)O)C2(O)C(=O)NC(CC(C)C)C2C1C (centres undefined),4,12,1.0,-0.55
C[C@H]1O[C@@H](O[C@H]2[C@@H](O)C[C@H](O[C@H]3[C@@H](O)C[C@H](O[C@H]4CC[C@]5(C)C6C[C@@H](O)[C@]7(C)[C@@H](C8=CC(=O)OC8)CC[C@]7(O)C6CC[C@@H]5C4)O[C@@H]3C)O[C@@H]2C)C[C@H](O)[C@@H]1O (some centres undefined),26,-8,/,-0.044
COc1ccc(NC(=O)N(C)C[C@@H]2Oc3ccc(NS(=O)(=O)c4cccs4)cc3CC(=O)N([C@H](C)CO)C[C@H]2C)cc1,-4,-6,-1.0,0.51
C[C@@H]1CN([C@@H](C)CO)C(=O)c2cccc(NC(=O)c3ccc(-c4nccs4)cc3)c2O[C@H]1CN(C)CC1CC1,19,3,/,0.34
COc1ccc(OC)c(NC(=O)CN(C)S(=O)(=O)c2c(C)cc(C)cc2C)c1,7,/,0.4,/
C[C@@H]1CCCCO[C@H](CN(C)Cc2ccc(C(F)(F)F)cc2)[C@@H](C)CN([C@H](C)CO)C(=O)c2cc(NC(=O)c3ccncc3)ccc2O1,-5,/,/,0.2
C[C@@H]1CN([C@H](C)CO)C(=O)c2cccc(NC(=O)NC3CCCCC3)c2O[C@@H]1CN(C)Cc1ccc(-c2ccccc2)cc1,10,-17,0.5,-0.21
CC(C)NC(=O)Nc1ccc2c(c1)C(=O)N([C@H](C)CO)C[C@@H](C)[C@H](CN(C)Cc1ccc(Cl)c(Cl)c1)O2,1,/,0.1,-0.058
C[C@H](CO)N1C[C@H](C)[C@H](CN(C)C(=O)Nc2ccccc2)Oc2ccc(NC(=O)Cn3cnnn3)cc2C1=O,-10,/,/,0.0011
COc1ccccc1NC(=O)COc1ccc(C(=O)O)cc1OC,-11,/,0.7,/
C[C@@H]1CN([C@H](C)CO)C(=O)c2cc(NC(=O)NC3CCCCC3)ccc2O[C@H]1CN(C)Cc1ccc(Cl)c(Cl)c1,31,/,-4.4,0.36
CSc1ccccc1NC(=O)Cn1c([N+](=O)[O-])cnc1C,-3,/,0.6,/
CCOC(=O)CSc1nc(N)nc(C)c1Cl,-2,/,2.3,/
C/C1=C/C[C@]2(C)C(=O)C(=O)C([C@H](C)CO)[C@H]2C/C=C(/C)[C@@H](O)CC/C(C)=C\CC1 (some centres undefined),-19,4,-2.6,-0.59
O=C(Cn1ccc([N+](=O)[O-])n1)NCc1ccccn1,-4,/,-1.0,/
CN(C)c1ccc2nc3c(nc2c1)C(=O)c1ccccc1C3=O,15,/,-1.4,-0.15
C[C@@H]1CN([C@H](C)CO)C(=O)Cc2cc(NC(=O)Nc3ccc(C(F)(F)F)cc3)ccc2O[C@H]1CN(C)Cc1ccc(Cl)c(Cl)c1,-1,-15,1.1,0.24

# Looked up by structure from the list above, two records:
SMILES,MITF inh,Hedgehog inh,PD-1 reversal,YB-1 expr inh
COc1ccc(OC)c(NC(=O)CN(C)S(=O)(=O)c2c(C)cc(C)cc2C)c1,7,/,0.4,/
CCn1c(SCc2nc3ccccc3c(=O)[nH]2)nnc1-c1ccccc1F,-28,/,0.2,/
